# EPAC1 ag val = validation of human EPAC1 agonists; EPAC1 Rap1b BODIPY-GDP exchange, fluorescence; Potency, µM, without a hit: max response, positive = active, usual class: activators; hit rate 1% among 16,000; active = well fitted activation curve with a large enough effect; inconclusive = small, poorly fitted or top-dose-only effect; inactive = no such curve, though single readings can be large or run the other way;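 also: nearly all actives have a fitted effect of over 70% in size; series mostly up to about 76 or 150 µM; scaled to a cAMP control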
# Target sequence (O95398 whole entry, looked up): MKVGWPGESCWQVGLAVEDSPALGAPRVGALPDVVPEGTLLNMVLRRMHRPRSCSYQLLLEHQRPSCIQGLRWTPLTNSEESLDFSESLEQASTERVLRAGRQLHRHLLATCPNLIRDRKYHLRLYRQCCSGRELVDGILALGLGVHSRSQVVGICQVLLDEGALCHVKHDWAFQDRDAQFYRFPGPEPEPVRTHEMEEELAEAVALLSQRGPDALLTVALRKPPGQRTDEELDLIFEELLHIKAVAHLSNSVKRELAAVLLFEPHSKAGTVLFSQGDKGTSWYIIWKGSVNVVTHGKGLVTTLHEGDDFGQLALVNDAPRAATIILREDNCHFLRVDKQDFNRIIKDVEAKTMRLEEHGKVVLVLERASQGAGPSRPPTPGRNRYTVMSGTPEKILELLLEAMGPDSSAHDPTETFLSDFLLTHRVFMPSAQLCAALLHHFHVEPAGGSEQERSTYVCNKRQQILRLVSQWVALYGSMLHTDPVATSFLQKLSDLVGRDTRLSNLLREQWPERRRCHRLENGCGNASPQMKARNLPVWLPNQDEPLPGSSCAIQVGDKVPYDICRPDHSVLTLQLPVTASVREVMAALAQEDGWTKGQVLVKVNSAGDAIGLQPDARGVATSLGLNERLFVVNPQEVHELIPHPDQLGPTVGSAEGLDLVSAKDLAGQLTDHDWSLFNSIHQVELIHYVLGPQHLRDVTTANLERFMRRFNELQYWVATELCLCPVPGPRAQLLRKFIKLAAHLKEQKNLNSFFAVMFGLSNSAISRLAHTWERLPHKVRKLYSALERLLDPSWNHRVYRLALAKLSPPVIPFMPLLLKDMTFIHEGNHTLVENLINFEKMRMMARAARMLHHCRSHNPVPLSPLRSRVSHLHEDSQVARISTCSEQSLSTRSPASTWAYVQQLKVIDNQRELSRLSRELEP
# The depositor's hits bear a star; u = inconclusive; & = joins results of further samples; [ ] = another dose, or the depositor's remark. % is scaled to controls: 0 for no effect and ±100 for the full control effect; potency is read from the fitted curve at half-maximal effect.
SMILES,EPAC1 ag val
CNC1(c2ccccc2Cl)CCCCC1=O (stereo not drawn),4%
O=C(O)Cc1cnc[nH]1,3%&-1%&-9%
C[C@]12CC[C@H]3[C@@H](CCC4=C(O)C(=O)CC[C@@H]43)[C@@H]1CC[C@@H]2OC(=O)CCC1CCCC1,9%
CN1CCc2cc(Cl)c(O)cc2[C@H]2c3ccccc3CC[C@@H]21,-3%
c1csc(CN2CC[C@@]3(CCCNC3)C2)n1,-73%[inhibitor]
C[C@]12CC[C@H]3[C@@H](CC[C@@]45O[C@@H]4C(O)=C(C#N)C[C@]35C)[C@@H]1CC[C@@H]2O,-8%
CCCN1CCc2cccc3c2[C@H]1Cc1ccc(O)c(O)c1-3,-3%
CC(C)C[C@H](NC(=O)[C@H](Cc1ccccc1)NC(=O)CNC(=O)[C@H](CO)NC(=O)[C@@H](N)Cc1ccc(O)cc1)C(=O)N[C@H](C(=O)O)[C@H](C)O,-13%
CCN(CC)C(=O)[C@@H]1C=C2c3cccc4[nH]cc(c34)C[C@H]2N(C)C1,14%&25%
C=C(C)c1cc2cc(C(C)=O)c(O)cc2o1,-16%&7%
C[C@@H](N)[C@@H](O)c1ccccc1,-12%
O=C(O)c1nn(Cc2ccc(Cl)c(Cl)c2)c2ccccc12,19%
N#C/C(=C\c1ccc(O)cc1)C(=O)O,11%
CCOC(=O)c1ccccc1C(=O)OCC,-12%
CCCN1CCC[C@@H]2Cc3nc(N)ncc3C[C@H]21,-9%&-9%
CC[C@]1(C2=NCCN2)Cc2ccccc2O1,-9%
Cc1ncsc1CCCl,0%&-20%&-7%
COC(=O)C1=CO[C@@H](C)[C@@H]2CN3CC[C@]4(C(=O)Nc5c4ccc(OC)c5OC)[C@H]3C[C@H]12,1%
c1ccc(N2CC[C@@]3(CCCNC3)C2)cc1,2%
Cc1ccccc1-n1c(CF)nc2ccc(N)cc2c1=O,-1%

# Reprinted at random: three entries already listed, in no set order.
SMILES,EPAC1 ag val
COC(=O)C1=CO[C@@H](C)[C@@H]2CN3CC[C@]4(C(=O)Nc5c4ccc(OC)c5OC)[C@H]3C[C@H]12,1%
O=C(O)c1nn(Cc2ccc(Cl)c(Cl)c2)c2ccccc12,19%
CCCN1CCC[C@@H]2Cc3nc(N)ncc3C[C@H]21,-9%&-9%

# Continuation.
SMILES,EPAC1 ag val
CN1CCN(c2ncc3ncc(=O)n(C)c3n2)CC1,4%
O=C(O)c1ccccc1-c1c2cc(Br)c(=O)cc-2oc2[c]([Hg])c(O)c(Br)cc12,u
O=C(NC(=O)c1c(F)cccc1F)Nc1ccc(Cl)cc1,18%
Cc1ncc(CNC(=O)N(CCCl)N=O)c(N)n1,-18%&-22%
CC(Cc1ccc(O)cc1)NCC(O)c1cc(O)cc(O)c1 (stereo not drawn),u
COc1c2c(cc3c1OCO3)CC[N+](C)=C2,u
CCC[C@@H]1CC2=CC(=O)CC[C@]2(C)[C@@H]2CC[C@@]3(C)[C@H](CC[C@]3(O)CCC(=O)O)[C@H]12,-7%
O=[N+]([O-])/N=C1\NCCN1Cc1ccc(Cl)nc1,8%&-14%
NC1=NC(=O)C(c2ccccc2)O1 (stereo not drawn),2%
CC1(C)C(=O)C=C[C@@]2(C)C1CC(O)[C@]1(C)C2CC[C@@]2(C)C(c3ccoc3)OC(=O)C3O[C@]312 (stereo partly drawn),26%
C[N+]1(CCF)[C@@H]2CC[C@H]1CC(OC(=O)C(O)(c1ccccc1)c1ccccc1)C2 (stereo partly drawn),4%
CN(CCCC(=O)c1cccnc1)N=O,-19%
CC(C)(C)CC(C)(C)c1ccc(O)cc1,-211%&-128%[inhibitor]
CCNc1nc(Cl)nc(NC(C)C)n1,30%
CC[C@]1(O)CC(O[C@@H]2CC(N(C)C)C(O)C(C)O2)c2c(cc3c(c2O)C(=O)c2c(O)cccc2C3=O)C1C(=O)OC (stereo partly drawn),u
O=C(O)CCCOc1ccc(Cl)cc1Cl,26%&16%
C=CC(=O)NCNC(=O)C=C,8%
Cc1nc2cnc(N3CCNCC3)nc2n(C)c1=O,-84%[inhibitor]
CC1CCC2C(C)C(=O)OC3OC4(C)CCC1C32OO4 (stereo not drawn),7%
C=CCN1CC[C@]23c4c5ccc(O)c4O[C@H]2/C(=N/NC(=O)c2ccccc2)CC[C@@]3(O)[C@H]1C5,4%
Cc1cc([C@@H]2CCCN2C)on1,2%
CN1CCc2cc3c(cc2C1C1OC(=O)c2c1ccc1c2OCO1)OCO3 (stereo not drawn),-3%&2%
C=C(C)C1Cc2c(ccc3c(=O)c4c(oc23)COc2cc(OC)c(OC)cc2-4)O1 (stereo not drawn),u
CCCCCCCCCc1ccc(O)cc1,u
OC[C@H]1O[C@@H](n2cnc3cc(Cl)c(Cl)cc32)[C@H](O)[C@H]1O,-11%
CCN(CC)CCOC(=O)C(C)(c1ccccc1)c1ccccc1,-9%
COC(=O)[C@]1(C)CC[C@@]2(C)CC[C@@]3(C)C4=CCc5c(cc(O)c(O)c5C)[C@]4(C)CC[C@@]3(C)C2C1 (stereo partly drawn),u
COc1cccc2c1cc([N+](=O)[O-])c1c(C(=O)O)cc3c(c12)OCO3,-6%&-1%&8%
CC(=O)OCC(=O)[C@H]1CC[C@H]2[C@@H]3CC[C@H]4C[C@H](O)CC[C@]4(C)[C@H]3C(=O)C[C@]12C,-14%
CCC(C)(C)c1ccc(O)cc1,-17%
O=C(/C=C/c1ccc(Cl)cc1)N[C@@]12CCC(=O)[C@@H]3Oc4c(O)ccc5c4[C@@]31CCN(CC1CC1)C2C5,-16%
Cc1cc(OC(=O)N2CCCCC2)c(C(C)C)cc1[N+](C)(C)C,19%
CCC1(C)CC(=O)NC(=O)C1,-54%[inhibitor]
Cc1ccccc1-c1cncnc1NCCc1cnc[nH]1,16%
Cc1ccc(S(=O)(=O)N[C@@H](CCCCN)C(=O)CCl)cc1,u
CC(C)CCC(=O)O[C@H]1CC[C@H]2[C@@H]3CCC4=CC(=O)CC[C@]4(C)[C@H]3CC[C@]12C,6%
CNc1ccc(C(=O)CC(O)CCC(C)C2OC(=O)CC(O)CC(=O)CC(O)CC(O)CC(O)CC(O)CC3(O)CC(O)C(C(=O)OC)C(CC(O[C@@H]4O[C@H](C)[C@@H](O)[C@H](N)[C@@H]4O)/C=C/C=C/C=C/C=C/C=C/C=C/C=C/C2C)O3)cc1 (stereo partly drawn),u
COc1ccc2c(c[n+](C)c3c4cc5c(cc4ccc23)OCO5)c1OC,3%&-2%
CC1CC[C@@]2(OC1)O[C@@H]1[C@@H](O)[C@H]3C4CC[C@H]5C[C@@H](O[C@@H]6O[C@H](CO)[C@H](O[C@@H]7O[C@H](CO)[C@@H](O)[C@H](O[C@@H]8OC[C@@H](O)[C@H](O)[C@H]8O)[C@H]7O[C@@H]7O[C@H](CO)[C@@H](O)[C@H](O[C@@H]8O[C@H](CO)[C@@H](O)[C@H](O)[C@H]8O)[C@H]7O)[C@H](O)[C@H]6O)[C@H](O)C[C@]5(C)C4CC[C@]3(C)[C@H]1[C@@H]2C (stereo partly drawn),-16%
CN[C@H]1C[C@@H](N)[C@H](O)[C@@H](O[C@@H]2O[C@H](CO)[C@H](O)[C@@H]3OC4(O[C@H]23)O[C@H](C(N)CO)[C@H](O)[C@H](O)[C@H]4O)[C@@H]1O (stereo partly drawn),u
Oc1ccc2c3c1O[C@H]1c4oc5ccccc5c4C[C@@]4(O)C(C2)N(CC2CC2)CC[C@]314,-11%
O=C1/C(=C\c2ccccc2)C[C@@]2(O)[C@H]3Cc4ccc(O)c5c4[C@@]2(CCN3CC2CC2)[C@H]1O5,4%
COc1cc(=O)n2c(c1C(=O)N(C)Cc1nonc1C)CCN(C(=O)C1C(C)(C)C1(C)C)CC2,-19%
CNC(C)Cc1ccccc1OC (stereo not drawn),3%
C[C@@H]1O[C@H](C[N+](C)(C)C)C[C@H]1O,-12%
Nc1ccccc1,3%
C[C@@H](N)C(=O)c1ccccc1,7%
CCOC(=O)NC(O)C(Cl)(Cl)Cl (stereo not drawn),-2%
CCOC(=O)c1ncn2c1CN(C)C(=O)c1c(I)cccc1-2,-14%
O=C(/C=C\c1ccc(Cl)cc1)N[C@@]12CCC(=O)[C@@H]3Oc4c(O)ccc5c4[C@@]31CCN(CC1CC1)[C@@H]2C5,-18%

# Continued.
SMILES,EPAC1 ag val
CCO/N=C(\CC)C1=C(O)CC(c2c(C)cc(C)cc2C)CC1=O (stereo not drawn),13%
CC(C)(O)[C@@H]1[C@H]2OC(=O)[C@@H]1[C@]1(O)C[C@H]3O[C@]34C(=O)O[C@H]2[C@@]14C (tested in a mixture with another compound),1%
C[C@H](Cc1ccc2c(c1)OC(C(=O)O)(C(=O)O)O2)NC[C@H](O)c1cccc(Cl)c1,-5%
O=Cc1ccco1,-26%
CC(C)(C#N)O[C@H]1OC(CO)C(O)C(O)C1O (stereo partly drawn),-8%
COc1cc2c(cc1O)CCNC2C (stereo not drawn),-11%
CN1C[C@@H](CO)C=C2c3cccc4[nH]cc(c34)CC21 (stereo partly drawn),13%
NCCCP(=O)(O)CC1CCCCC1,-18%&9%
NC(=NCCCC(N)C(=O)O)N[N+](=O)[O-] (stereo not drawn),25%
CNC(Cc1c[nH]c2ccccc12)C(=O)O (stereo not drawn),-9%
CC(C)[C@H](NC(=O)[C@H](CCC(=O)O)NC(=O)[C@H](Cc1ccccc1)NC(=O)[C@H](C)NC(=O)[C@@H](N)Cc1ccc(O)cc1)C(=O)N[C@H](C(=O)NCC(N)=O)C(C)C,-13%
N[C@H](CP(=O)(O)O)C(=O)O,-2%
O=[N+]([O-])c1cc(O)c(O)c([N+](=O)[O-])c1,-3%&-19%&-25%
CC1(C)N(O)C(c2ccc(C(=O)O)cc2)=[N+]([O-])C1(C)C,-3%
CC(C)[C@]1(NC(=O)[C@@H]2C=C3c4cccc5[nH]cc(c45)C[C@H]3N(C)C2)O[C@@]2(O)C3CCCN3C(=O)[C@H](Cc3ccccc3)N2C1=O (stereo partly drawn),1%
C/C=C(\C)C(=O)OC1CC(OC(C)=O)[C@@]2(C(=O)OC)COC3C2[C@@]12CO[C@](O)(C(=O)OC)C2[C@](C)(C12OC1(C)C1CC2OC2OC=C[C@]21O)C3O (stereo partly drawn),-10%
CNc1ccccc1C(=O)O,-11%
CN1CC[C@@]2(C)c3cc(OC(=O)Nc4ccccc4)ccc3N(C)[C@@H]12,3%&-19%
O=C(O)CCCCCCNC1c2ccccc2CCc2ccccc21,10%
CC(C)N(CCC(C(N)=O)(c1ccccc1)c1ccccn1)C(C)C (stereo not drawn),u

# Given with tabs: entries from further up.
mol	EPAC1 ag val
CNC(C)Cc1ccccc1OC (stereo not drawn)	3%
C[C@@H]1O[C@H](C[N+](C)(C)C)C[C@H]1O	-12%
Nc1ccccc1	3%
C[C@@H](N)C(=O)c1ccccc1	7%
CCOC(=O)NC(O)C(Cl)(Cl)Cl (stereo not drawn)	-2%
CCOC(=O)c1ncn2c1CN(C)C(=O)c1c(I)cccc1-2	-14%
O=C(/C=C\c1ccc(Cl)cc1)N[C@@]12CCC(=O)[C@@H]3Oc4c(O)ccc5c4[C@@]31CCN(CC1CC1)[C@@H]2C5	-18%

# (further entries)
SMILES,EPAC1 ag val
COc1ccc2c(c1)C13CCCC[C@@H]1C(C2)N(C)CC3 (stereo partly drawn),-9%
CNC(=O)O/N=C/C(C)(C)SC,u
CC(=O)OC1CN2CCC1CC2 (stereo not drawn),-9%
CN1CCN(c2ccc3ccccc3n2)CC1,-10%&2%
CC1(C)S[C@@H]2[C@H](N)C(=O)N2[C@H]1C(=O)O,-5%
COc1ccc(Cc2nccc3cc(OC)c(OC)cc23)cc1OC,0%&-3%&5%&5%
O=C(CN1CCCC1)c1ccccc1,u
COc1ccccc1N1CCNCC1,4%&-23%&0%
CN1C[C@H](CNC(=O)OCc2ccccc2)C[C@@H]2c3cccc4c3c(cn4C)C[C@H]21,u
C(=C\c1ccccc1)/CN1CCN(CCOC(c2ccccc2)c2ccccc2)CC1,4%
CC1(C)C(O)CC(=O)[C@]2(C)C1CC(=O)[C@]1(C)C2CC[C@@]2(C)C(c3ccoc3)OC(=O)C3O[C@@]321 (stereo partly drawn),-2%
COc1cccc2c1C13CC[N+]4(CC5CC5)CO[C@]1(CCC(=O)C3)C4C2,-9%
[N-]=[N+]=CC(=O)OC[C@H](N)C(=O)O,-19%
CCOC(=O)[C@]12Cc3cc(C)ccc3[C@H]1N(Cc1ccccc1)C(=O)c1ccccc12,u
Cc1c2ccncc2c(C)c2c1[nH]c1ccccc12,-1%&-13%
COc1cccc([C@@]2(O)CCCC[C@@H]2CN(C)C)c1,-21%
CP(=O)(O)CCCN,-13%&4%
CC(=O)OC1CC(OC(C)=O)[C@]2(C)C(CC(OC(C)=O)[C@]3(C)C2CC[C@@]2(C)C(c4ccoc4)C(=O)C4O[C@]432)C1(C)C (stereo partly drawn),-21%
CC(C)(C)NCC(O)c1cc(Cl)c(N)c(Cl)c1 (stereo not drawn),26%&-26%
COC[C@H]([C@@H](O)[C@@H](O)C(=O)NCC[C@@H](C)c1nc(/C=C/C[C@H]2OC3(C[C@H](O)[C@H]2C)OC([C@@H](C[C@@H](O)[C@@H](C)[C@@H](O)[C@@H](C)/C=C(C)/C(C)=C/C=C/C(C)=C\C#N)OC)[C@@H](OP(=O)(O)O)C3(C)C)co1)N(C)C (stereo partly drawn),-30%
CC(N)C(O)c1ccc(O)c(O)c1 (stereo not drawn),-5%&11%
C[C@H]1CC[C@@H]2[C@@H](C)[C@H]3[C@H](C[C@H]4[C@@H]5CC=C6CC(O[C@@H]7O[C@H](CO)[C@H](O)[C@H](O[C@@H]8O[C@H](CO)[C@@H](O)[C@H](O)[C@H]8O)[C@H]7O[C@H]7O[C@@H](C)[C@H](O)[C@@H](O)[C@H]7O)CC[C@]6(C)[C@H]5CC[C@]34C)N2C1 (stereo partly drawn),-40%[inhibitor]
CN1CC[C@@]2(CCCN(C(=O)c3csnn3)C2)C1,-47%[inhibitor]
CN(N=O)c1cc(O)ccc1O,23%
CC1=C2[C@H]3OC(=O)[C@@H](C)[C@@H]3CC[C@@]2(C)C=CC1=O,-11%

# These rows are one share of the data; rates above refer to the full screens.
